TRPV1 PAM: HTS Assay for Compounds that Act as Potentiators of the Vanilloid Receptor 1; Transient receptor potential cation channel subfamily V member 1 (Homo sapiens), Q8NER1; TRPV1-expressing cells, Fluo-8 calcium influx, capsaicin EC20 potentiation; host cell line not named in the record; control for the full effect not named in the record; potentiation, % at 8.33 µM; 0.02% of 320,000 active; AID 540277, 2011; active means potentiation above 80%; inconclusive means 30% to 80%; inactive means below 30%; further: 0% is about no effect
Target sequence (Q8NER1 whole entry, looked up): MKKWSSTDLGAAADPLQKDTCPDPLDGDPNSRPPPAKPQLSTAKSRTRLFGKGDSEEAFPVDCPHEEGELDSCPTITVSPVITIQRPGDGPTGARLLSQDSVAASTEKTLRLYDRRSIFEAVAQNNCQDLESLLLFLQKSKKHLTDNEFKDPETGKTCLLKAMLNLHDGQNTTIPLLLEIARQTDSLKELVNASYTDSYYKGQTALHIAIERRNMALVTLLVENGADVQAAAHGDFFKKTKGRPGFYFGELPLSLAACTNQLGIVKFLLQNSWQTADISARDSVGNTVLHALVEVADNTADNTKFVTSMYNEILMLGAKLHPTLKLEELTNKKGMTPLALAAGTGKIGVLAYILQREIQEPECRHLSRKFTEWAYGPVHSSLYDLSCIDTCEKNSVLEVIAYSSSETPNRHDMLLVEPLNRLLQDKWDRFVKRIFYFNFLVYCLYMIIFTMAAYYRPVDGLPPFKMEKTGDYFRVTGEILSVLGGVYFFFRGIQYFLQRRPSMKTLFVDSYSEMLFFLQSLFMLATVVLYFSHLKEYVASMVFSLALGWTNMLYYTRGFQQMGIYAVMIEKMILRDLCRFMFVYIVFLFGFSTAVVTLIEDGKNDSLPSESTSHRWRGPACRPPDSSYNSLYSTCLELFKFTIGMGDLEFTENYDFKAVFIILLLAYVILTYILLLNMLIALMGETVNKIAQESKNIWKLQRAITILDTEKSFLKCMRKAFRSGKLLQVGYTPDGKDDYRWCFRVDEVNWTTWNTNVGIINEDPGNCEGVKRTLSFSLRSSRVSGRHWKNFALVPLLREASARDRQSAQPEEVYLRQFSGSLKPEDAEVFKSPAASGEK
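TRPV1-expressing cells were cultured overnight at 35.5C and loaded with Fluo-8 calcium dye for 40 to 90 min at room temperature. After a 10 s baseline, compound was added and calcium influx was read kinetically for 3 min (ex 480/em 520 nm).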
Sfp inh: qHTS Assay for Inhibitors of Bacillus subtilis Sfp phosphopantetheinyl transferase (PPTase); 4'-phosphopantetheinyl transferase ffp (Bacillus subtilis), Q9F4F7; Biochemical Sfp PPTase activity, qHTS; Potency, µM, for the others: max response, negative = inhibition, actives largely listed as inhibitors; 3.5% of 310,000 active; AID 1490, 2009; active means well fitted inhibition curve with a large enough effect; inconclusive means small, poorly fitted or top-dose-only effect, or another doubt; inactive means no such curve, though single readings can be large or run the other way;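 further: the enzyme is Sfp with the accession as filed and its product quenches rhodamine fluorescence; potency means the concentration at half of the fitted maximal effect; 0% = enzyme reaction without inhibitor and -100% = no enzyme wells; top concentration of the series not given in the record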
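Buffer: 50 mM Hepes-Na pH 7.6, 10 mM MgCl2, 0.01% Nonidet P-40, 0.01% BSA. Enzyme 15 nM, pre-exposed to compound 15 min; substrates then added and fluorescence change tracked over 30 min.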
gsp antagonist: qHTS for Antagonists of gsp, the Etiologic Mutation Responsible for Fibrous Dysplasia/McCune-Albright Syndrome: qHTS | gsp-mutant cells, cAMP HTRF, 30 min; control for the full effect not named in the record | Potency, µM (titrated, usually from 76.9 µM), for the others: top-dose activity change, negative = inhibition, actives largely listed as inhibitors | 0.4% of 340,000 active | AID 624288, 2012; active = falling curve of any shape with a large fitted effect; inconclusive = falling curve, mostly with a smaller effect; inactive = flat or rising curve; cell line not stated here;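 further: intracellular cAMP measured with PDE inhibitor Ro 20-1724 present during compound exposure; potency means the concentration at half of the fitted maximal effect; on the % scale 0 is the no-effect control and ±100 the full control effect; nearly all actives have a fitted effect of over 65% in size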
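Cells in G418 medium, seeded 16-24 h, 37C; buffer exchange to DPBS + 1 mM CaCl2, 0.5 mM MgCl2, 0.05% BSA; cpds in DMSO + […] (300 uM stock), 30 min 37C; HTRF cAMP detection.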
ClpP mod: qHTS Assay for Activators of ClpP; purified B. subtilis ClpP, FRET peptide cleavage, 20 min; Potency, µM (series often up to 57.5 µM), without a hit: at the highest dose activity change, negative = active; AID 651965, 2013; 1.9% of 340,000 active; active = well fitted falling curve with a large enough effect; inconclusive = small, poorly fitted or top-dose-only effect; inactive = no such curve, though single readings can be large or run the other way; further: potency means the concentration at half of the fitted maximal effect; the source files actives as falling curves though it sought activators and does not explain the sign; nearly all actives have a fitted effect of over 65% in size; many hits overshoot -100%
Target sequence (P80244 whole entry, looked up): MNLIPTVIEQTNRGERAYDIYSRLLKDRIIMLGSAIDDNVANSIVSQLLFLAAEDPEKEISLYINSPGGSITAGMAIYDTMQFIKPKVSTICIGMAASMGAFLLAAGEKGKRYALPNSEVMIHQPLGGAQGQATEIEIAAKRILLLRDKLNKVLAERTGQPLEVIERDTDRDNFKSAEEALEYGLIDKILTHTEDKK
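Buffer: 100 mM Tris/HCl pH8, 100 mM KCl, 0.05% low protease BSA, 2.5% glycerol, 0.01% Tween-20. ClpP 10 microg/mL final; 20 min RT; delta FRET normalized to ADEP and DMSO controls.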
Menin MLL FP FL: qHTS Assay for Inhibitors Targeting the Menin-MLL Interaction in MLL Related Leukemias: Competition With Fluorescein Labeled MLL-derived Peptide; Fluorescence polarization, fluorescein-MLL peptide displacement from menin; FP activity change, % at 61.4 µM; 290,000 tested, under 10 active; inconclusive = falling polarisation curve, or a change in total fluorescence; inactive = total fluorescence flat and polarisation flat or rising; no compound was filed as active; the % refers to the polarisation; negative = inhibition;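 further: % of control where 0% means no effect; inhibitors lower the polarisation; unlabelled MLL peptide was the positive control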
TRPML1 blocker: qHTS for Inhibitors of the Human Mucolipin Transient Receptor Potential 1 (TRPML1); Mucolipin-1 (Homo sapiens), Q9GZU1; TRPML1-inducible cells, Ca2+ dye fluorescence, FDSS; active compounds read low; inhibition of EC80 agonist-evoked calcium signal; activity change, negative = inhibition, % (concentration not given with the values); 0.02% of 390,000 active; AID 624415, 2012; in the data active means activity change below about -50%; inconclusive means about -30% to -50%; inactive means above about -30%;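 further: stimulus is agonist 54-4 at its EC80 concentration; on the % scale 0 is the no-effect control and ±100 the full control effect; the text of the record puts the active cut at -80%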
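Tet-induced TRPML1-DL cells loaded with Ca8 no-wash calcium dye were read kinetically on FDSS. Compound addition was followed by EC80 agonist 54-4 (4 uM final); inhibition was read over 110 s.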
gsp agonist: qHTS for Agonist of gsp, the Etiologic Mutation Responsible for Fibrous Dysplasia/McCune-Albright Syndrome: qHTS; gsp mutant cells, cAMP HTRF, 30 min; control for the full effect not named in the record; Potency, µM (highest dose often 76.9 µM), for the others: top-dose activation (cAMP increase), usual class: activators; 0.13% of 340,000 active; AID 624287, 2012; active = well fitted activation curve with a large enough effect; inconclusive = small, poorly fitted or top-dose-only effect, or another doubt; inactive = no such curve, though single readings can be large or run the other way; cell line not stated here;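 further: phosphodiesterase inhibitor Ro 20-1724 added with compounds to block cAMP breakdown; potency means the concentration at half of the fitted maximal effect; nearly all actives have a fitted effect of over 60% in size; about a fifth of the inactives were tested at one dose only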
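Cells stably selected in G418 were plated at 2000/well, grown 16-24 hr, then given compounds in DMSO with the PDE inhibitor […] (300 uM solution added) for 30 min at 37C; cAMP was read by HTRF.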
Numbers without * were called inactive; ? = inconclusive; / = not tested or not shown; & = joins results of further samples; [ ] = remark or other dose.

SMILES	TRPV1 PAM	Sfp inh	gsp antagonist	ClpP mod	Menin MLL FP FL	TRPML1 blocker	gsp agonist
O=C(O)c1ccc(B(O)O)cc1	/	36%[activator]	/	-0.9%	1.8	/	/
Cc1cc(NC(=O)COC(=O)CNS(=O)(=O)c2ccc(C)c(C)c2)no1	6	-11%	-19%	-2.5%	0.1	-26	-3%
c1cc(SC2CCCCC2)cc(-c2nc3cnccn3c2NC2CCCCC2)c1	/	/	3%	?	/	83	/
COc1ccc(CN2C(=O)C(CC(=O)NCC3CCCCC3)CC(C(=O)N3CCOCC3)=C2C)cc1 (stereo not given)	/	/	/	-1.2%	/	1	2%
C/C(=N\NC(N)=O)c1c(F)cccc1F	13	12%	21%	32µM*	0.5	-6	7%[15.4 µM]
COc1cccc(NC(=O)CCC2CCN(C(=O)C(OC)c3ccccc3)CC2)c1 (stereo not given)	/	/	/	-0.4%	/	7	2%
OCCN1CCN(CC(O)COCCOc2ccc(Br)cc2)CC1 (stereo not given)	-11	-6%	6%	2.1%	0.3	-1	0%
OCC#CCSc1nnc(-c2ccncc2)o1	8	?	11%	-4.6%	2.4	-15	3%
NC(=O)CSc1nnc(COc2cccc3ccccc23)o1	0	11%	-18%	1.6%	-0.1	-2	4%
C=CCNC(=O)c1c(CSc2ccc(Cl)cc2)noc1C(=O)NCc1ccccc1	/	/	-6%	-1.3%	/	36	-19%
O=C(c1ccc(-n2cnnn2)cc1)N1CCOCC1	0	-2%	18%	-27%	4.2	-13	13%
Cc1nn(-c2ccccn2)c2c1C(=O)CC(C)(C)C2N=[N+]=[N-] (stereo not given)	/	/	9%	-5.3%	/	23	/
CCN(CC)S(=O)(=O)c1cc(NC(=O)CSc2n[nH]c(N)n2)ccc1C	14	/	-13%	0.5%	/	-12	-8%
CCOc1cc2[nH]c(=S)n(C3CCN(Cc4ccccc4)CC3)c(=O)c2cc1OCC	-2	20%	5%	/	-3.5	-7	-1%
CCCCCCSC1=C(C#N)C(c2ccc(O)cc2)CC(=O)N1 (stereo not given)	5	-1%	3%	-1.5%	1.5	37	-16%
CCC(CC)C(=O)N1CC(=O)Nc2ccc(F)cc2C1c1ccc(F)cc1 (stereo not given)	-19	7%	2%	0.7%	6.4	10	-71%[inhibitor]
CCCN1CCN(CCCNC(=O)CCNC(=O)Cn2ccc3ccccc3c2=O)CC1	18	-1%	7%	?	-0.3	-12	-8%
O=C1CCCN1CN(C(=O)c1ccccc1)c1ccccc1	-14	11%	5%	-0.5%	2.9	6	-2%[15.4 µM]
CC(C)(C)c1ccccc1NC(=O)CN1C(=O)NC2(CCCC2)C1=O	-1	12%	8%	/	0.6	-6	-17%[15.4 µM]
Cc1ccc(-n2c3c(cc(C(=O)NCC(=O)c4ccccc4)c2=O)C(=O)CCC3)cc1	7	14%	10%	?	/	13	-7%
N#CC(Sc1ccccn1)c1ccc(Cl)cc1 (stereo not given)	-18	28µM*	4%	/	0.9	-2	-33%[15.4 µM]
COc1ccccc1CNC(=O)CCCc1cn(C)c2ccccc12	0	-4%	-23%	-17%	-4.8	-7	?
O=C(CSc1nnc(-c2ccc(O)cc2)n1-c1ccccc1)CC(=O)Nc1ccccc1	5	18%	-15%	1.1%	6.5	0	24%[15.4 µM]
O=C(C1CCCN(S(=O)(=O)Cc2ccccc2)C1)N1CCc2ccccc21 (stereo not given)	-2	-2%	-22%	2.2%	0.4	12	-5%
CC(C)c1nnc(NC(=O)C2CCCN2C(=O)Nc2ccccc2)s1 (stereo not given)	-19	3%	-1%	/	-0.3	10	1%[15.4 µM]
CCOc1ccc(NC(=O)CN(C)C(=O)c2cccnc2Sc2ccccc2Cl)cc1OCC	9	/	-26%	?	/	-4	5%
CN(C(=O)c1cccc(NC(=O)Cc2cccc(NC(=O)C3CCN(C(=O)C4CCCCC4)CC3)c2)c1)C1CCC1	/	/	6%	-1.5%	/	36	/
CCOC(=O)C1CCN(Cc2cn(C)nc2-c2ccc(Oc3ccccc3)cc2)CC1	5	1%	6%	/	-0.8	0	?
O=C(NCCN1CCCCC1)Nc1ccc(F)cc1	0	16%	7%	0.4%	2.2	6	-24%[15.4 µM]
Cc1ccc(S(=O)(=O)NCC(=O)NCc2ccncc2)cc1	-24	-6%	6%	0.4%	1.4	-8	11%
CCOc1ccc(C(C)=O)cc1CSc1nnnn1-c1ccc(O)cc1	1	16%	-18%	-0.5%	0.5	21	-2%[15.4 µM]
O=C1COCCN1	/	-1%	/	/	-8.9	-7	/
CCOC(=O)[C@@H]1[C@H]2COc3cc(OC)ccc3[C@H]2N2C(=O)N(c3ccc(Cl)cc3)C(=O)[C@]12C	/	/	-10%	-4.3%	/	-7	-22%
Nn1c(SCC(=O)NCC2CCCO2)nnc1-c1ccco1 (stereo not given)	/	/	10%	/	/	-2	15%[15.4 µM]
COC(=O)c1cc(N=Cc2c(O)c3ccccc3oc2=O)cc(C(=O)OC)c1	17	17%	-4%	-18%	0.9	-1	4%
COCCCNC(=O)c1ccc([N+](=O)[O-])c(Cl)c1	2	5%	-3%	-2.0%	4.7	-1	9%

A different layout for some results above:
Order of results: TRPV1 PAM | Sfp inh | gsp antagonist | ClpP mod | Menin MLL FP FL | TRPML1 blocker | gsp agonist
Cc1ccc(S(=O)(=O)NCC(=O)NCc2ccncc2)cc1
 : -24 | -6% | 6% | 0.4% | 1.4 | -8 | 11%
CCOc1ccc(C(C)=O)cc1CSc1nnnn1-c1ccc(O)cc1
 : 1 | 16% | -18% | -0.5% | 0.5 | 21 | -2%[15.4 µM]
O=C1COCCN1
 : / | -1% | / | / | -8.9 | -7 | /

Following part.
SMILES	TRPV1 PAM	Sfp inh	gsp antagonist	ClpP mod	Menin MLL FP FL	TRPML1 blocker	gsp agonist
NC(=O)c1cccnc1	-1	9%&-2%&19%	26%	-1.9%	3.3&-3.5&2.6	0	/
Cc1ccc(NC(=O)C2CCCN(c3ncccn3)C2)cc1F (stereo not given)	-11	13%	-5%	-24%	-4.3	33	7%
CCN(CC(=O)Nc1cccc(C(C)=O)c1)S(=O)(=O)c1ccc(OC)cc1	13	15%	-5%	-3.3%	3.4	7	-11%
NC(=O)c1ccccc1NC(=O)/C=C/c1cccc(Cl)c1	-1	5%	-23%	-0.9%	7.4	4	5%
CC(=NNc1nc2ccccc2s1)c1ncccn1	/	/	?	1.2%	/	-3	8%
O=C1CSC(c2ccccc2)N1Nc1nc(N2CCOCC2)nc(N2CCOCC2)n1 (stereo not given)	17	-2%	5%	/	6.5	16	12%[15.4 µM]
O=C(N[C@@H](Cc1c[nH]c2ccccc12)C(=O)O)c1ccccc1Cl	8	-13%	10%	/	2.8	-3	-1%
O=C1NC(CCc2ccccc2)C(=O)N1CCOc1ccccc1 (stereo not given)	6	20%	3%	-0.5%	0.9	-8	5%
COc1ccc(-n2c(C)c(C(C)=O)c3cc(OC(C)=O)ccc32)cc1	-3	3%	-4%	-1.0%	0.2	10	-14%
COc1ccccc1C(=O)N1CCC(N2CCN(c3ccccc3)CC2)CC1	3	-20%	-16%	/	-2.8	1	3%[15.4 µM]
CC1(c2ccccc2Cl)NC(=O)N(CC(=O)NCCC2=CCCCC2)C1=O (stereo not given)	1	-6%	/	/	0.2	-30	19%[15.4 µM]
COc1cccc(NS(=O)(=O)c2c(C)nc3sccn3c2=O)c1	-22	5%	1%	0.2%	5.1	-5	-15%

Individual results from the results shown.
Sfp inh, `CC1(c2ccccc2Cl)NC(=O)N(CC(=O)NCCC2=CCCCC2)C1=O` (stereo not given) stands at -6%
ClpP mod, `CC(=NNc1nc2ccccc2s1)c1ncccn1` stands at 1.2%
Menin MLL FP FL, `COc1cccc(NS(=O)(=O)c2c(C)nc3sccn3c2=O)c1` stands at 5.1
gsp antagonist, `COc1ccc(-n2c(C)c(C(C)=O)c3cc(OC(C)=O)ccc32)cc1` stands at -4%
Sfp inh, `O=C(N[C@@H](Cc1c[nH]c2ccccc12)C(=O)O)c1ccccc1Cl` stands at -13%

Next part.
SMILES	TRPV1 PAM	Sfp inh	gsp antagonist	ClpP mod	Menin MLL FP FL	TRPML1 blocker	gsp agonist
COc1ccc(OC(C)=O)c(C2c3cc(OC)c(OC)cc3CCN2C(C)=O)c1 (stereo not given)	7	-3%	5%	-5.2%	1.8	1	-39%[inhibitor]
CC(=O)c1c(C)oc2ccc(N(C(C)=O)S(=O)(=O)c3ccc(Br)cc3)cc12	/	/	-32%	-1.1%	/	-3	2%
CCN1C(=O)[C@H]2[C@@H](c3ccc(C)cc3)N[C@]3(CCCN(Cc4ccc(OC)cc4)C3=O)[C@H]2C1=O	/	/	/	-0.4%	/	14	-14%
Cc1cc(C)n(CCN(C)C(=O)CCc2nnc(CCC3CCCCC3)o2)n1	-8	22%	-4%	-0.1%	-5.6	-2	21%
Cc1ccc2[nH]c(=O)c(CN(Cc3ccccc3)C(=S)NCCCN(C)C)cc2c1	-15	12%	-7%	/	2.1	10	14%[15.4 µM]
COc1cc(-c2noc(C3CCCN(C(=O)c4ccccc4)C3)n2)cc(OC)c1OC (stereo not given)	-8	13%	-19%	3.0%	4.8	-3	-52%[inhibitor]
O=C(c1ccc(Cl)cc1)N1CCn2c1nc1ccccc12	11	18%	11%	-0.2%	-0.3	4	-71%[inhibitor]
COc1ccc(-c2nc(-n3c(C)c(C(C)=O)c(C(C)=O)c3C)sc2C)cc1	6	-8%	10%	1.4%	-0.1	-7	?
Nc1ccc(C(=O)OC2CCOC2=O)cc1[N+](=O)[O-] (stereo not given)	1	-1%	7%	57%	9.3	-13	-55%
N#Cc1ccc(OCC(=O)N2CCN(c3ccc(C(F)(F)F)cn3)CC2)cc1	-5	/	-13%	?	/	5	?

Compound activity from PubChem.
